CtBP-E1A inh = inhibitors of CtBP/E1A interaction; AlphaScreen GST-E1A/His-CtBP binding, 1536-well; active compounds read low; control for the full effect not named in the record; 0.49% of 340,000 active; activity change, % (concentration not given with the values); in the data active means activity change below about -65%; inconclusive means about -30% to -65%; inactive means above about -30%; note: % is set by controls: 0 for no effect and ±100 for the full control effect
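Protein mix (5X: 125 nM each GST-E1A, His-CtBP) was incubated with pinned compound 2 h at 37 deg C in dark, in 50 mM Tris pH 8.0 buffer with 300 mM NaCl. Glutathione donor and nickel acceptor beads followed; AlphaScreen signal read after 1 h.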
D2 agonist = agonists of human D2 dopamine receptor (beta-arrestin); P14416; DiscoveRx PathHunter D2 beta-arrestin, luminescence, 90 min; 100% = 57 uM dopamine signal; activation, % (test concentration not listed); 0.084% of 360,000 active; in the data active = activation above about 40%; inconclusive = about 15% to 40%; inactive = below about 15%; note: compound concentration not given in the record; the text of the record calls up to 30% inactive
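DiscoveRx PathHunter D2 beta-arrestin cells (2,100/well) attached overnight, then compound-stimulated 90 min at 37 C in HBSS/10 mM HEPES/0.1% Tween-20 buffer; beta-galactosidase complementation read by luminescence after 1 h at ambient temperature. Dopamine 57 uM final (EC100) as control.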
TRPV1 PAM = human TRPV1 potentiation; Q8NER1; TRPV1-expressing cells, Fluo-8 calcium influx, capsaicin EC20 potentiation; host cell line not named in the record; control for the full effect not named in the record; potentiation, % at 8.33 µM; 0.02% of 320,000 active; AID 540277; active means potentiation above 80%; inconclusive means 30% to 80%; inactive means below 30%; note: 0% is about no effect
Target sequence (Q8NER1 whole entry, looked up): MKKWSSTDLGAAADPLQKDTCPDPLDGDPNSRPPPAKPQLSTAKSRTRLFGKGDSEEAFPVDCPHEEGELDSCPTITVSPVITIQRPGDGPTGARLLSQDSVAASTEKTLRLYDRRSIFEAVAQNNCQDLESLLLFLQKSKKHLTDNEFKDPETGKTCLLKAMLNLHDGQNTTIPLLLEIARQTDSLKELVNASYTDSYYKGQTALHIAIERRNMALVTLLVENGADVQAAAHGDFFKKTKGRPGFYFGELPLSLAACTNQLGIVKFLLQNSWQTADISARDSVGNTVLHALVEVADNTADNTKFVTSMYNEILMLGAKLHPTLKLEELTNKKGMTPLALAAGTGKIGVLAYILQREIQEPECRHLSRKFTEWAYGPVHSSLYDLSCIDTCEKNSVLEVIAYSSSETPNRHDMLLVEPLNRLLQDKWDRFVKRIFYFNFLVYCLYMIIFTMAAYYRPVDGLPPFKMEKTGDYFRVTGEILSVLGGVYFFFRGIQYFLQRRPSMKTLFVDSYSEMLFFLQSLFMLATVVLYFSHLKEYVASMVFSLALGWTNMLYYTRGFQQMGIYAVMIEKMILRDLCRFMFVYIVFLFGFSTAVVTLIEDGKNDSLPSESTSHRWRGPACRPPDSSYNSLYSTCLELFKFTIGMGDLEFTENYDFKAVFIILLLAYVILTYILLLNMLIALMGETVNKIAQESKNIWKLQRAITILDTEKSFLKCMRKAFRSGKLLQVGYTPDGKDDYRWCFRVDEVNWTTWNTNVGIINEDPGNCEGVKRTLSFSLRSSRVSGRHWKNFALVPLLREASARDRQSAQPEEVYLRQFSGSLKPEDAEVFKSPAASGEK
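TRPV1-expressing cells were cultured overnight at 35.5C and loaded with Fluo-8 calcium dye for 40 to 90 min at room temperature. After a 10 s baseline, compound was added and calcium influx was read kinetically for 3 min (ex 480/em 520 nm).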
Sfp inh = Sfp phosphopantetheinyl transferase inhibition; Q9F4F7; Biochemical Sfp PPTase activity, qHTS; Potency, µM, inactives show max response, negative = inhibition, hits mostly inhibitors; 3.5% of 310,000 active; AID 1490; active = well fitted inhibition curve with a large enough effect; inconclusive = small, poorly fitted or top-dose-only effect, or another doubt; inactive = no such curve, though single readings can be large or run the other way;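 note: the enzyme is Sfp with the accession as filed and its product quenches rhodamine fluorescence; potency is the fitted concentration of half-maximal effect; 0% = enzyme reaction without inhibitor and -100% = no enzyme wells; top concentration of the series not given in the record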
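Sfp 15 nM + cpd, 15 min RT; start w/ rhodamine-CoA 5 uM, BHQ-2-YbbR 12.5 uM (final); 50 mM Hepes pH 7.6, 10 mM MgCl2, 0.01% NP-40, 0.01% BSA; read 525/598 nm at 0 and 30 min.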
Six1-Eya2 blk = inhibitors of human Six1/Eya2 interaction | Q15475+O00167 | AlphaScreen GST-Six1/His-Eya2 binding, biochemical; active compounds read low; control for the full effect not named in the record | activity change, % (concentration not given with the values) | 0.56% of 360,000 active | AID 651725; in the data active = activity change below about -65%; inconclusive = about -30% to -65%; inactive = above about -30%; note: % is set by controls: 0 for no effect and ±100 for the full control effect
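Six1/Eya2 binding was read as AlphaScreen signal after compounds were pinned into GST-Six1 plus His-tagged Eya2 (5X stock 250/500 nM) in pH 8.0 Tris/NaCl/TCEP buffer, beads added, then incubated 1 h, 37 C, dark.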
D2 PAM = human D2 receptor positive allosteric modulation; P14416; DiscoveRx D2 beta-arrestin cells, luminescence, 90 min; 100% = 57 uM dopamine signal; 0.23% of 360,000 active; potentiation, % (no concentration beside the values); AID 624464; active = potentiation of 50% or more; inconclusive = 30% to 50%; inactive = 30% or less;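 note: compound concentration not given in the record; tested on top of an EC20 dose of dopamine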
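D2 cells co-treated with compound plus 50 nM dopamine (EC20) for 90 min at 37 deg C to detect potentiation. Beta-arrestin recruitment was read as enzyme-fragment luminescence after 1 h at ambient temperature. Full response was set by 57 uM dopamine.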
PINK1 modulator = modulators of PINK1 expression | PINK1 immunofluorescence, high-content cytometry, 24 h | Potency, µM (highest dose often 76.6 µM), for the others: top-dose activation (PINK1 increase), hits mostly activators | 0.2% of 410,000 active; active = well fitted activation curve with a large enough effect; inconclusive = small, poorly fitted or top-dose-only effect; inactive = flat fitted curve, though single readings scatter; cell line not stated here;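 note: potency is the fitted concentration of half-maximal effect; % of control where 0% means no effect; nearly all actives have a fitted effect of over 65% in size; a mitochondrial uncoupler was the plate control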
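Measures PINK1 amount and localization on or inside mitochondria by immunofluorescence. Stable cells get compounds at 5 concentrations for 24 hours before fixation and staining; CCCP controls included.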
* hit, by the source's call; ? = inconclusive; · = not tested or not shown; & = joins results of further samples; [ ] = dose if it differs, or a comment.

SMILES	CtBP-E1A inh	D2 agonist	TRPV1 PAM	Sfp inh	Six1-Eya2 blk	D2 PAM	PINK1 modulator
COCCNC(=O)c1c(N)n(-c2cccc(C)c2)c2nc3ccccc3nc12	25.0	2.1	4.8	-20.2%	32.9	?	-0.7%
C[C@H](CO)N1C[C@H](C)[C@@H](CN(C)Cc2ccccc2)Oc2ccc(NC(=O)Cn3cnnn3)cc2C1=O	5.1	-1.2	·	·	-2.8	·	-1.2%
Cc1[nH]nc2c1C(c1ccsc1)C(C#N)=C(N)O2 (stereo not given)	2.2	-1.2	10.1	6.7%	2.6	-5.4	-0.3%
COc1cccc(OCc2cc(C(=O)N(C)Cc3nc(C)cs3)no2)c1	19.7	4.8	-6.4	-0.8%	0.5	10.7	1.5%
O=C(CCCC1=NS(=O)(=O)c2ccccc2N1)N1CCN(c2ccc(Cl)cc2)CC1	-8.5	-1.1	9.7	3.6%	-4.2	-2.9	1.7%
C[C@H](CO)N1C[C@H](C)[C@@H](CN(C)C(=O)NC2CCCCC2)Oc2ccc(NC(=O)Nc3ccccc3)cc2C1=O	3.4	-1.8	·	·	6.5	-6.5	0.4%
CCOc1ccc(N(C)S(=O)(=O)c2csc(C(N)=O)c2)cc1	0.3	0.6	5.8	11.7%	3.1	-3.0	1.1%
COc1ccc(CCN2C(=O)C(C)=C(C)C2=O)cc1OC	·	-1.0	9.7	6.8%	-20.1	-0.7	-0.2%
COc1ccc(NC(C)=O)cc1NC(=O)C1CCCN1C(=O)c1cccs1 (stereo not given)	8.6	-0.9	-15.6	·	-2.6	-7.6	0.8%
Cc1cc(C(=O)OCC(=O)N2CCOCC2)c(C)n1-c1ccccc1	0.9	1.4	·	·	0.0	-3.8	0.9%
O=C1CCSc2ccc(Cl)cc2N1Cc1ccc(Cl)cc1	2.9	-3.5	9.3	6.5%	-16.5	-3.4	9.5%
Nc1ccc(C(=O)Nc2ccc3cc(S(=O)(=O)O)ccc3c2)cc1	?	0.4	·	·	?	-0.1	-0.7%
CCCCNC(=O)C1CCC(CNS(=O)(=O)c2ccc(NC(C)=O)cc2)CC1 (stereo not given)	-3.0	-3.3	-3.4	14.0%	0.5	7.0	0.7%&-1.1%
O=C(Cn1ncc2c1-c1ccccc1OC2)N1CCN(Cc2ccc3c(c2)OCO3)CC1	4.7	-5.4	-0.7	3.3%	0.7	-7.5	-1.3%
NNC(=O)C(Cc1cnc[nH]1)NC(=O)OCc1ccccc1 (stereo not given)	·	-6.5	0.6	6.5%	1.3	-5.5	1.1%
CC(=O)Nc1cccc(NCC(=O)Nc2cc(S(=O)(=O)N3CCCCC3)ccc2Cl)c1	-5.1	-0.1	·	·	-12.6	-2.4	6.4%
COC(=O)c1cccc(NC(=O)CSc2nc(=O)cc(N)n2-c2ccccc2)c1	-8.3	-0.1	-1.1	10.9%	-2.1	-12.6	-2.1%
CSc1nsc(SCC(=O)Nc2cccc(C(=O)O)c2)n1	6.7	2.9	11.4	7.1%	-5.0	-1.9	1.8%
COc1ccc(/C=C/c2ccncc2)cc1	0.0	0.5	0.4	1.4%	3.9	3.8	-1.8%
O=C(OCC(=O)N1CCCC1)c1ccc(Cl)nc1	2.1	6.0	5.7	·	9.1	-0.4	-0.1%
O=C(N/N=C/c1ccc([N+](=O)[O-])cc1)c1[nH]ncc1Br	4.7	8.2	-16.2	-7.0%	2.1	5.3	2.8%
COC(=O)c1cc(NC(=O)c2cccc(C(F)(F)F)c2)c(=O)oc1C/C=N/OCc1cccc(Cl)c1Cl	-3.3	-1.7	-9.7	0.0%	-7.4	25.5	22.4µM*
COc1ccccc1NS(=O)(=O)c1cc(N)ccc1N1CCOCC1	3.4	-4.5	·	·	-2.2	-10.0	-0.7%
O=Cc1ccccc1OCc1ccc2c(c1)OCO2	7.4	-6.0	-9.7	1.4%	12.7	-16.2	10.0%
COc1c2c(cc(O)c1C(C)=O)OC(C)(C)C=C2	-14.5	-2.2	·	·	-5.9	-4.5	1.4%
COC(=O)c1cnc(Oc2ccc(NC(=O)NC(=O)c3ccccc3Cl)cc2)cc1C(F)(F)F	0.7	3.6	6.7	20.0%	-0.8	-5.1	10.5%
CSc1ccc(S(=O)(=O)Nc2ccc3c(c2)NC(=O)CC3)cc1	-24.9	7.3	9.6	8.1%	1.7	-0.3	-0.8%
Cc1ccc(S(=O)(=O)Nc2cc(C(=O)Nc3cc(C)cc(C)c3)ccc2Cl)cc1	-11.9	-1.2	12.8	3.7%	-16.1	19.6	-0.4%
CC(NC(=O)CSc1nnc(COc2ccccc2)o1)c1ccccc1 (stereo not given)	4.8	-1.9	3.5	7.3%	7.8	4.4	0.3%
CCOc1ccccc1NC(=O)N1CCC(c2nc3ccc(C)cc3[nH]2)CC1	-3.8	-2.1	?	2.9%	0.7	-13.1	0.5%[38.3 µM]
CCCN1CCN(C(c2cc3cc(OCC)ccc3[nH]c2=O)c2nnnn2C2CCCCC2)CC1 (stereo not given)	9.8	-3.6	-12.4	-4.5%	3.7	-13.7	2.5%[38.3 µM]
Cc1ccc(-c2cc(C(=O)NCC(c3ccccc3)N(C)C)c3ccccc3n2)o1 (stereo not given)	-17.5	-2.3	·	·	3.0	-16.1	-2.2%
COc1ccc(C2C(C#N)=C(N)Oc3cc(O)ccc32)cc1C (stereo not given)	·	1.6	4.0	4.9%	-2.0	-10.8	4.1%
CCC(=Nc1ccccc1O)C1=C(O)CC(c2ccccc2)CC1=O (stereo not given)	2.9	3.0	5.0	79.4µM*	-1.6	6.4	3.0%
CC(C)(C)NC(=O)NC(=O)COC(=O)CCC1CCCCC1	-5.5	-3.7	-10.2	5.4%	-1.8	-20.5	13.5%
CC1CCCCC12NC(=O)N(CC(=O)N1CCN(c3ncccn3)CC1)C2=O (stereo not given)	·	-4.1	-5.1	·	10.3	-6.0	-0.3%
O=C1/C(=C/c2cccc(F)c2)SC(=S)N1NS(=O)(=O)c1ccccc1	-1.1	-3.7	-3.2	1.2%	-8.6	-10.4	0.2%
COc1ccc(CC(=O)NNC(=O)COc2ccc(Br)cc2C)cc1OC	-1.6	-0.8	12.6	-3.8%	7.4	-18.4	12.7%
O=C(OCC(=O)N1CCCCCC1)c1ccc(F)cc1F	6.9	5.9	4.2	·	5.6	-3.4	3.6%
Cc1ccc(S(=O)(=O)N2CCCC(C(=O)NCc3ccco3)C2)cc1Cl (stereo not given)	3.3	-0.3	-9.1	-4.5%	-3.2	-8.0	?
COc1ccc(Cl)cc1NC(=O)c1nc2nc(C)cc(C(F)F)n2n1	5.1	0.5	2.1	-7.8%	-1.1	-3.8	-0.9%
Nc1ncc(Br)cc1S(=O)(=O)NCCC(=O)NC1CCCCC1	4.9	-1.4	5.8	6.7%	2.5	-10.8	-1.6%
CC(CCc1ccccc1)NC(=O)c1ccco1 (stereo not given)	-0.6	1.4	1.7	12.9%	1.7	-8.2	-1.8%
O=C(c1cnn(-c2cccc(F)c2)c1)c1ccccc1O	3.5	-1.6	-15.1	4.1%	7.3	2.3	2.8%
CN1C(=O)c2ccccc2C(C(=O)O)C1c1cccc([N+](=O)[O-])c1 (stereo not given)	4.9	-1.7	-1.7	13.9%	-2.5	0.9	1.9%
Cc1cc(Cl)ccc1C(O)c1ncc(-c2ccccc2Cl)[nH]1 (stereo not given)	-6.7	-3.2	·	·	-0.5	-10.5	3.6%
O=C(N/N=C/C=C/c1ccc([N+](=O)[O-])cc1)C1COc2ccccc2O1 (stereo not given)	-20.0	-4.3	25.5	-24.5%	-19.4	2.3	1.1%
CCOC(=O)c1nn(-c2ccccc2)c(C)c1C(C)=O	12.4	-0.5	-1.4	11.4%	0.6	-4.9	-1.0%

Profiles from above. Values in the order: CtBP-E1A inh | D2 agonist | TRPV1 PAM | Sfp inh | Six1-Eya2 blk | D2 PAM | PINK1 modulator
O=C(N/N=C/C=C/c1ccc([N+](=O)[O-])cc1)C1COc2ccccc2O1 (stereo not given) in the list: -20.0 | -4.3 | 25.5 | -24.5% | -19.4 | 2.3 | 1.1%
CCOC(=O)c1nn(-c2ccccc2)c(C)c1C(C)=O in the list: 12.4 | -0.5 | -1.4 | 11.4% | 0.6 | -4.9 | -1.0%

Other records.
SMILES	CtBP-E1A inh	D2 agonist	TRPV1 PAM	Sfp inh	Six1-Eya2 blk	D2 PAM	PINK1 modulator
CC1=C(C(=O)N2CCOCC2)CC(CC(=O)NCc2cccs2)C(=O)N1CCCN1CCCC1=O (stereo not given)	-19.7	-3.5	·	·	14.7	-6.0	0.7%
Cc1cccc(C)c1NC(=O)Cn1nnc(C(=O)Nc2ccc(F)cc2F)c1N	·	-3.8	-0.9	-2.7%	2.4	-7.2	10.0%
CCN(CC(=O)NNC(=O)c1ccccc1)Cc1ccc(OC)c(F)c1	8.4	-0.4	·	·	-1.3	-2.4	0.8%
COc1cccc(/C=N/NC(=O)CCCC(=O)NC2CCCCC2)c1	-9.5	-3.2	11.4	16.3%	3.9	-4.9	-0.6%
O=C(NC1CCCCC1)C1CC(=O)N(c2ccccc2)C1 (stereo not given)	0.0	-2.0	1.3	3.1%	-1.8	-3.0	-2.3%
O=C(O)/C=C/C(=O)NCCc1ccccc1	20.6	7.1	6.1	6.1%	0.7	-8.9	3.4%
CC(C)CSc1nc(N)nc2c1ncn2C1OC(CO)C(O)C1O (stereo not given)	15.8	-0.9	·	·	14.4	-4.8	-2.0%
O=c1[nH]c(=S)[nH]c2scc(-c3ccc(Br)cc3)c12	1.3	0.1	·	·	?	-5.7	-0.8%
COCC(=O)N(C)C[C@@H]1Oc2cc(Br)ccc2S(=O)(=O)N([C@H](C)CO)C[C@H]1C	0.5	-7.9	·	·	6.0	3.3	0.7%
c1ccc(OCc2nn3c(C4CCCCC4)nnc3s2)cc1	6.9	-1.5	-5.5	-12.4%	1.2	3.1	-7.4%[38.3 µM]
O=C(N/N=C/c1c(F)cccc1Cl)c1cc(C2CC2)[nH]n1	·	-4.7	10.7	9.3%	-4.7	-11.7	3.4%
O=C(CCNS(=O)(=O)c1cccs1)N1CCc2ccccc2C1	-2.0	-1.9	-0.8	11.7%	-1.6	-18.9	3.6%
O=C(NC(Cc1ccccc1)C(=O)O)/C(=C/c1ccco1)NC(=O)c1cccc(Br)c1 (stereo not given)	-8.0	-1.7	8.3	?	-4.6	-7.9	1.4%
N#C/C(C(=O)NCCc1ccccc1)=C1/N=C(NC(=O)c2cccs2)c2ccccc21	-14.4	-3.8	26.0	14.0%	-11.4	16.8	16.3%
O=C(Nc1ccc(S(=O)(=O)Nc2ncccn2)cc1)c1cccnc1	7.9	1.3	-4.0	-13.7%	-3.5	1.1	-0.9%
COc1cc(-c2cc(C(=O)O)c3c(OC)c(OC)c(OC)cc3n2)ccc1O	7.0	-4.8	-2.9	13.5%	-19.2	6.1	-1.1%
